HNF4A DNA FP – change in binding of human HNF4 alpha to DNA. AID 1224865. HNF4a-FITC DNA binding, fluorescence polarization, 1 h. actives 0.3% (n = 360,000). activity change, % at 10 µM; in the data active means activity change above about 30%, passing the limit was not always enough;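 further: controls were the assay level and a saturating level of protein; the project sought stronger binding though the title names inhibitors; some compounds called inactive have numbers as strong as hits; positive values seem to mean higher polarization but the record does not say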
LANA-H2B inh – blocks KSHV LANA binding to histone H2A/H2B. Q9QR71. actives 0.6% (n = 320,000). inhibition, % (concentration not given with the values). cell-free LANA-H2A/H2B peptide, fluorescence polarization; in the data active means inhibition mostly above about 10%, no sharp cut-off; inactive means mostly below about 6.7%;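 further: stock transfer was 7.5 nL into about 10 µL; 0% = median of vehicle wells and 100% = median of positive control wells; one replicate is shown; the record names a cut of 25% in any replicate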
Target sequence (Q9QR71 whole entry, looked up): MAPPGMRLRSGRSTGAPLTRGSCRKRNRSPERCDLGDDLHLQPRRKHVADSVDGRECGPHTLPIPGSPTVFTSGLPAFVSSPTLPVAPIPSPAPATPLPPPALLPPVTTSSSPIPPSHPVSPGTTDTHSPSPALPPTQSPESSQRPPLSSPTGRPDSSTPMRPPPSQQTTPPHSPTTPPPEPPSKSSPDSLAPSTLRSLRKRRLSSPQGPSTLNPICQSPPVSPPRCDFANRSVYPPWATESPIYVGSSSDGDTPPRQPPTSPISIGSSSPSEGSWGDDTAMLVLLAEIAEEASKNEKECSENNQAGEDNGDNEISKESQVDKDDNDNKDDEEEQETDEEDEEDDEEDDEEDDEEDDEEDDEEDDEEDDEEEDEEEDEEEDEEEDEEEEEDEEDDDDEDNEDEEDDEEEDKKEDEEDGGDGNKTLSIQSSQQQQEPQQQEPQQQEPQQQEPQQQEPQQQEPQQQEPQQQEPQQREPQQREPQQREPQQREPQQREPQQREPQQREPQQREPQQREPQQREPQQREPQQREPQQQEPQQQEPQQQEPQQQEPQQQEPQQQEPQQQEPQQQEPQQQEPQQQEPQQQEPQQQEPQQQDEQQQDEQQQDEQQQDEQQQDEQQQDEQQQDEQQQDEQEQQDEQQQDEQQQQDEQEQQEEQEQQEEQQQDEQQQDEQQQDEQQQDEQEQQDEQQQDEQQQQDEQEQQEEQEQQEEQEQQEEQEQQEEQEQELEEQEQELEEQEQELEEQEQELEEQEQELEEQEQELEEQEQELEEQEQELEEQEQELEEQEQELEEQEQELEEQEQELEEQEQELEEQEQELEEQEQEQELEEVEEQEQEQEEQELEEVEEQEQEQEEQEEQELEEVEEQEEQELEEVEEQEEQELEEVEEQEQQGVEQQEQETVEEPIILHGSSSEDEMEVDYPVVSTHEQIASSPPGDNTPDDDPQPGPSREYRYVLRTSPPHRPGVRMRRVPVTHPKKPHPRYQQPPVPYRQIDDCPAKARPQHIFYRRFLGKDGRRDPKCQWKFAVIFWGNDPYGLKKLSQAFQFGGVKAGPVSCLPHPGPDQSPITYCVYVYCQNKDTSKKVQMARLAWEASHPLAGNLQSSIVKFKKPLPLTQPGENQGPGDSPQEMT
Ecoli growth – E. coli growth inhibition. Escherichia coli growth, OD600, 23 h; active compounds read low. OD600 absorbance (concentration not given with the values). actives 0.21% (n = 330,000);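 active means OD600 absorbance below the run mean of sample wells minus 3.6 SD, in any replicate, cut at about 0.56 in these data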;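 further: stock transfer was 300 nL into about 60 µL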
FGF22 binding – binders of recombinant human FGF22 by thermal shift. SYPRO orange fluorescence; percent of sucrose octasulfate shift, DMSO zero. calls only at 9.99 µM. actives 1.5% (n = 340,000). AID 651658;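 active means melting point raised past a set limit in the mean and every replicate; three in four hits are not shown here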
UCH37 DUB inh – blocks the human deubiquitinase UCH37; actives 0.33% (n = 330,000); inhibition, % (no concentration beside the values); AID 588478; Q9Y5K5; purified proteasome/UCH37, Ub-AMC cleavage fluorescence;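 active means mean of two replicates above 20%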;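 further: 0% = compound-free wells with enzyme and 100% = wells lacking proteasome; stock transfer was 100 nL into about 20 µL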
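Test system – human UCH37 enzyme supplied as purified proteasome complex · Incubation – 30 min preincubation with enzyme, 25 min cleavage at room temperature · Detection – AMC fluorescence from Ub-AMC cleavage, excitation 355 nm, emission 460 nm · Benchmarks – no-proteasome wells (full inhibition) and compound-free wells (no inhibition)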
ALR inh – blocks human ALR sulfhydryl oxidase activity; AID 485317; purified ALR, DTT oxidation, H2O2 HRP-luminol luminescence; actives 3.8% (n = 290,000); P55789; inhibition, % (concentration not given with the values);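 active means mean and each replicate at 75% or more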;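 further: stock transfer was 7.5 nL into about 7.5 µL; 0% = neutral wells and 100% = wells with inactivated enzyme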
Beta2AR agonist – agonists of human beta-2 adrenergic receptor inducing internalization | Am2.2-beta2AR cells, FAP receptor internalization, flow cytometry; reference of the scale not given here | actives 0.43% (n = 340,000) | AID 504454 | response, % (concentration not given with the values);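 active means response above a set limit, near 3 SD of response in nonfluorescent compounds, cut at about 42% in these data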;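 further: stock transfer was 100 nL into about 11 µL; a reference agonist was the positive control; negative values mostly stem from fluorescent compounds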
The depositor's hits bear a star; i = inactive; x = not tested or not shown.

SMILES	HNF4A DNA FP	LANA-H2B inh	Ecoli growth	FGF22 binding	UCH37 DUB inh	ALR inh	Beta2AR agonist
O=C(NCc1ccco1)C(c1ccccc1)N(CC1CCCO1)C(=O)Cn1nnc2ccccc21 (centres undefined)	-1.1	3.2	0.71	x	6.1	2	1
CSCCC(NC(=O)c1ccccc1)C(=O)NNC(=O)c1ccccc1 (centres undefined)	3.5	-2.4	0.66	i	0.9	15	-2
O=C(Nc1cccnc1)c1sc2cccc(F)c2c1Cl	3.0	0.3	0.68	i	2.9	x	1
COc1ccc(OC)c(NC(=O)C2CCCCC2C(=O)O)c1 (centres undefined)	-1.0	2.5	0.77	x	2.5	-25	7
CCN(C(=S)NC(=O)c1ccccc1Br)C1CCCCC1	3.9	-0.8	0.7	x	5.2	-5	9
O=C(COC(=O)/C=C/c1ccc(C(F)(F)F)cc1)NCc1ccco1	0.6	1.6	0.72	i	2.9	-1	-4
O=C(c1noc2c1CCCC2)N1CCOCC1	-1.3	5.1	0.67	i	0.1	-9	-2
CCC(C)C(NC(=O)CCC(=O)OCC(=O)[C@@]1(O)CCC2[C@@H]3CCC4=CC(=O)C=C[C@]4(C)C3[C@@H](O)C[C@@]21C)C(=O)O (some centres undefined)	-1.7	-0.3	0.67	i	0.5	-3	-1
CCOC(=O)c1cnc2c(C(F)(F)F)cccc2c1N1CCN(C)CC1	0.2	-1.6	0.69	i	8.6	-7	2
O=C(CNc1ccccc1C(=O)O)c1ccccc1	-2.0	1.4	0.65	i	-8.0	45	7
COC(=O)CC(NC(=S)NC(=O)c1ccccc1)c1ccc(Br)cc1 (centres undefined)	0.6	1.8	0.65	i	2.2	-3	2
Cn1c(=O)c2c(n(Cc3ccccc3)c1=O)NC(=O)C2CC(=O)NCc1cccc(Cl)c1 (centres undefined)	3.7	-0.4	0.69	x	4.5	31	5
NS(=O)(=O)c1cccc(NC(=O)COC(=O)CC2CC3CCC2C3)c1 (centres undefined)	-1.8	-4.6	0.73	i	2.8	1	-1
Cc1cc(C(=O)NNc2ccc(F)cc2)no1	-3.5	1.1	0.63	i	4.3	99*	-8
C=C1CCC[C@]2(C)C[C@H]3OC(=O)C(CNC(CC)CO)[C@H]3CC12 (some centres undefined)	2.7	-2.2	0.67	i	15	-1	-4
CCCOc1cccc(C(=O)NCCNC(=O)c2ccccn2)c1	1.0	-1.0	0.7	i	2.7	1	-11
Cc1ccc(OC(=O)c2cccnc2)cc1	1.6	5.2	0.65	i	0.1	x	1
CN(C(=O)c1cccc(NC(=O)Cc2ccc(NC(=O)C3CCCN(C(=O)c4ccccc4)C3)cc2)c1)C1CCC1 (centres undefined)	2.6	x	0.72	i	3.6	x	-8
COc1ccccc1-n1cc(C(=O)NCC(=O)NCc2ccc(F)cc2)c2ccccc2c1=O	0.7	0.8	0.7	i	-2.2	-3	2
CC(C)CNC(=O)c1c(N)n(/N=C/c2ccccn2)c2nc3ccccc3nc12	-4.5	-1.8	x	x	x	-5	-8
CCOC(=O)C1=CN(Cc2ccco2)S(=O)(=O)NC1c1ccc(C(F)(F)F)cc1 (centres undefined)	0.6	x	0.73	i	-0.3	x	-4
COc1cc(OC)c(C(=O)Nc2ccc(C(=O)c3ccccc3)cc2)cc1OC	-1.3	-0.2	0.71	i	5.4	-4	9
CC(N)(C(=O)O)c1cccc(OCc2cccc(Cl)c2)c1 (centres undefined)	0.3	-4.9	0.67	i	3.5	-2	-5
O=C(CN1C(=O)NC2(CCCCC2)C1=O)NCc1cccs1	-3.0	-2.3	0.67	i	2.0	1	10
N#CC1(NC(=O)CSc2nc3ccccc3s2)CCCCC1	-2.5	0.1	0.63	i	0.7	98*	-4

An excerpt from further up, for reference:
SMILES	HNF4A DNA FP	LANA-H2B inh	Ecoli growth	FGF22 binding	UCH37 DUB inh	ALR inh	Beta2AR agonist
CC(C)CNC(=O)c1c(N)n(/N=C/c2ccccn2)c2nc3ccccc3nc12	-4.5	-1.8	x	x	x	-5	-8
CCOC(=O)C1=CN(Cc2ccco2)S(=O)(=O)NC1c1ccc(C(F)(F)F)cc1 (centres undefined)	0.6	x	0.73	i	-0.3	x	-4
COc1cc(OC)c(C(=O)Nc2ccc(C(=O)c3ccccc3)cc2)cc1OC	-1.3	-0.2	0.71	i	5.4	-4	9
CC(N)(C(=O)O)c1cccc(OCc2cccc(Cl)c2)c1 (centres undefined)	0.3	-4.9	0.67	i	3.5	-2	-5
O=C(CN1C(=O)NC2(CCCCC2)C1=O)NCc1cccs1	-3.0	-2.3	0.67	i	2.0	1	10
N#CC1(NC(=O)CSc2nc3ccccc3s2)CCCCC1	-2.5	0.1	0.63	i	0.7	98*	-4

Following part.
SMILES	HNF4A DNA FP	LANA-H2B inh	Ecoli growth	FGF22 binding	UCH37 DUB inh	ALR inh	Beta2AR agonist
COc1ccc(CNC(=S)Nc2ccc(Br)cc2)cc1	1.7	4.4	0.61	i	3.1	1	-3
Cc1cccc(NC(=O)CNC(=O)Cn2ncc(Cl)c(Cl)c2=O)c1C	-16	-7.2	0.72	x	3.7	x	4
COC(=O)c1scc2c(Oc3ccccc3)cc(C(F)(F)F)nc12	x	2.3	0.69	x	-48	-3	x
COc1cccc(N2[C@@H](CC(C)=O)c3ccc(/C=C/C(C)=O)cc3S2(=O)=O)c1	-0.4	0.2	x	i	2.6	x	5
COc1c(F)c(F)c(C(=O)Nc2c(C)cc(Br)cc2C)c(F)c1F	-3.7	-0.7	0.71	i	1.7	x	2
N#C/C(=C\c1cccc(Cl)c1)c1n[nH]c(Cn2cncn2)n1	-3.6	2.3	x	x	0.4	58	1
COCCNC(=O)Cn1nc(-c2ccccc2C)ccc1=O	0.5	-1.3	0.66	i	2.5	-3	-4
OCC1(Cc2ccccc2)CCCN(Cc2c[nH]c3ccccc23)C1 (centres undefined)	0.0	-3.0	0.66	i	1.8	23	10
COc1ccc(C2N(c3cc(Cl)ccc3OC)C(=O)C3CCCN32)c(OC)c1 (centres undefined)	1.5	-1.7	0.71	i	-0.4	-10	-3
Cc1cc(C)nc(SCC(=O)N2CCCCC2)n1	2.8	-0.7	0.71	x	1.6	-10	2
Cn1nnnc1SCC(=O)NCc1ccc2c(c1)OCO2	-1.2	9.2	0.66	i	5.1	-11	3
CC(=O)c1cc(CN2CCN(C(C)C)C(CCO)C2)cs1 (centres undefined)	4.7	1.5	x	i	x	x	-3
CC1Sc2ccc(C(=O)NCc3cccc(C(F)(F)F)c3)cc2NC1=O (centres undefined)	0.4	-3.1	0.64	i	-0.6	x	4
Nc1nc(N(Cc2ccccc2)Cc2ccccc2)nc(C(F)(F)F)n1	0.1	2.6	0.66	i	4.8	x	21
CCOc1ccc(NC(=O)NCCN2CCN(c3ccccc3F)CC2)cc1	-2.0	0.9	0.7	i	1.7	15	-1
CC(NC(=O)C(=O)NN=C1CCCC1)c1ccccc1 (centres undefined)	0.1	9.7	0.71	i	-0.6	23	3
CCn1ccnc1CN(C)Cc1cn(-c2cc(C)ccc2C)nc1-c1ccccc1	-5.5	20*	x	i	x	-4	-23
O=C(Nc1ccccc1)C1CCN(C(=O)c2ccc(Br)cc2)CC1	5.8	-2.7	0.68	i	1.9	-2	-4
Cc1ccc(S(=O)(=O)NCC(=O)OCC(=O)N(CCC#N)c2ccccc2)cc1	-0.1	1.5	0.68	i	3.6	-2	10
CCOc1ccc2ncc(S(=O)(=O)c3ccccc3)c(N3CCN(c4ccccc4)CC3)c2c1	-1.5	-0.1	0.65	i	-0.2	-8	-3
CC1(C)NC(=O)N(CC(=O)OCC(=O)c2ccc(Cl)s2)C1=O	1.5	1.8	0.66	i	0.6	19	5
CCCC(=O)N1CCN(c2ccc(NC(=O)C(C)(C)C)cc2)CC1	-0.1	5.9	0.7	x	-0.3	2	1
O=C(CSc1cccc[n+]1[O-])c1ccc(Cl)s1	-1.1	0.2	0.7	i	-1.5	9	-2
Cc1cc(C)c(-c2cc(C(=O)Nc3c(C)n(C)n(-c4ccccc4)c3=O)[nH]n2)c(O)c1	1.9	1.4	0.67	x	0.9	50	-3
CCCCNC(=O)CCSc1nc2nc(C)cc(C)n2n1	-1.9	4.7	0.71	i	1.8	-5	-8
Continued.
SMILES	HNF4A DNA FP	LANA-H2B inh	Ecoli growth	FGF22 binding	UCH37 DUB inh	ALR inh	Beta2AR agonist
C/C(=N/NC(=O)c1ccc(C)s1)c1cccc(NC(=O)COc2ccc(Cl)cc2Cl)c1	x	2.2	x	x	x	-2	13
CN(C)S(=O)(=O)c1ccc(Cl)c(C(=O)NCC2CCCCC2)c1	2.0	-7.7	0.7	i	5.2	x	-9
CCc1ccccc1N/C(=N\S(=O)(=O)c1ccccc1)C(F)(F)F	-3.1	-3.1	x	x	x	x	-1
Cc1ccc(S(=O)(=O)N2CCCCC2)cc1NC(=O)COC(=O)c1cc[n+]([O-])cc1	-0.1	-1.9	0.72	i	5.4	-18	-2
CN1CCN(NC(=O)Nc2ccc(Br)cc2Cl)CC1	0.8	2.9	0.68	i	-0.7	-7	-2
O=C(CN1C(=O)CC(c2ccccc2)S(=O)(=O)c2ccccc21)N1CCOCC1 (centres undefined)	x	-2.7	0.69	x	3.3	-11	x
O=C(NCCN1CCN(C(=O)c2cccs2)CC1)c1cccs1	-0.4	4.1	0.7	x	5.7	-2	-15
O=C(CSc1n[nH]c(-c2ccco2)n1)Nc1ccc(Br)cc1	-0.8	-1.7	x	i	x	15	6
Nc1nc(NCc2ccco2)nc(Nc2ccccc2)c1[N+](=O)[O-]	2.6	2.3	x	i	x	46	-3
O=C(N/C(=C\c1cccc([N+](=O)[O-])c1)C(=O)N1CCOCC1)c1ccco1	1.7	3.6	0.64	i	3.1	x	-4
O=C(c1cccs1)N1CCCC(c2ccccc2)C1 (centres undefined)	0.3	0.3	0.74	x	0.8	0	-3
Cc1cccc(NC(=O)c2cccc(S(=O)(=O)N(C)c3ccccc3)c2)n1	0.9	x	0.71	i	3.3	x	-12
COC(=O)c1c(C)[nH]c(C(=O)COC(=O)Cn2cc(C(F)(F)F)ccc2=O)c1C	-2.7	x	0.58	i	1.9	x	15
O=C(COC(=O)c1cc(S(=O)(=O)N2CCOCC2)c(Cl)cc1Cl)c1ccc[nH]1	7.9	-3.3	0.65	i	7.0	-4	14
COc1ccc(CCNC(=O)c2cc3c(=O)n4ccccc4nc3n(C3CCCCC3)c2=N)cc1OC	0.9	-0.5	0.72	i	-15	-17	9
CC(C(=O)Nc1ccccc1)N(C)Cc1cccs1 (centres undefined)	0.5	-3.2	0.68	i	5.1	-4	6
COc1cc(C(=O)N2CCN(c3ccccn3)CC2)cc(OC)c1OC	-1.8	-1.6	0.72	i	4.1	x	5
CCn1c(=O)c([N+](=O)[O-])c(NCc2ccc3c(c2)OCO3)c2ccccc21	5.4	-6.1	0.64	i	3.7	x	0
CCOC(=O)/C(C#N)=C/Nc1cc(C(=O)OCC)cc2c(OC)c(OC)ccc12	-1.5	x	x	i	x	x	14
Cc1ccc(C)c(-n2[nH]c3c4c(ccc3c2=O)C(=O)c2ccccc2C4=O)c1	5.0	0.6	0.69	x	7.0	8	7
Cc1cc(-n2c(C)c3c(C)nnc(C)c3c2C)ccc1N	x	2.5	x	i	x	-16	20
CCOC(=O)CCP(=O)(O)C(O)c1ccc(OC)cc1 (centres undefined)	2.7	3.2	0.7	x	0.0	-3	5
CC(=O)Nc1ccc(S(=O)(=O)N(C)CC(=O)OCC(=O)N(C)c2ccccc2)cc1	-2.1	-0.3	x	i	x	-3	2
COC(=O)[C@]1(CC(C)C)N[C@H](c2ccc(-c3cccc(Cl)c3)cc2)[C@@H]2C(=O)N(C)C(=O)[C@@H]21	-2.2	3.0	x	i	0.8	1	12
CCOC(=O)N1CCC(NC(=O)c2ccc3snnc3c2)CC1	5.9	4.0	0.7	i	3.7	98*	9
O=C(NC1CCCCC1)N1CCCc2ccccc21	1.0	-1.3	0.65	x	6.5	5	-8
COCCSc1nnc(NC(=O)COc2ccc3c(c2)OCO3)s1	-0.9	2.7	0.69	i	2.0	-7	-3
O=C(Cn1ccc(NC(=O)OCc2ccccc2)nc1=O)NCc1ccc2c(c1)OCO2	0.4	0.8	0.72	i	-1.3	2	-18

Compound activity deposited in PubChem by several laboratories.

This is a subset (hit frequency here may not be typical).
